Source: PubChem
rRNA inh HTS = selective bacterial rRNA inhibition in E. coli; E. coli WT GFP vs humanized-ribosome RFP mutants, fluorescence, 24 h; stronger effect = lower value; DMSO median 0, no signal -100; actives 1.6% (n = 350,000); GFP signal change (wild-type ribosome), % (concentration not given with the values); AID 720706;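 active = significant combined selectivity score with lowered wild-type GFP, culture density cut under 30%, mutant RFP and density less affected; inactive = any of these conditions unmet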; note: one replicate is shown; some compounds called inactive have numbers as strong as hits
rRNA inh HTS OD600 = also measured in rRNA inh HTS; calls as there; OD600 change, %; measured here: OD600 growth;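 optical density of the mix in the first replicate; 0 = DMSO median and -100 = no signal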
rRNA inh HTS RFP = further read-out of rRNA inh HTS, marked with its call; RFP signal change, %; measured here: RFP humanized mutant strains;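 first replicate; 0 = DMSO median and -100 = no signal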
* = called active by the depositor; & = joins results of further samples. Only part of the results is shown (hit frequency here may not be typical).

SMILES	rRNA inh HTS	rRNA inh HTS OD600	rRNA inh HTS RFP
CCOC(=O)c1cc(-c2ccc(N3C(c4ccsc4)=Cc4ccccc4C3CC(C)=O)cc2)cc([N+](=O)[O-])c1 (stereo unspecified)	9	10	0.8
CCS(=O)(=O)N1[C@H](CO)[C@H](c2ccc(C#CCC3CCCC3)cc2)[C@@H]1C#N	-36	-66	-0.4
C[C@H](CO)N1C[C@H](C)[C@@H](CN(C)C(=O)Nc2ccccc2)OCc2ccccc2-c2c(n(C)c3ccccc23)C1=O	-4	-6	14
CN1C(=O)c2cc(NC(=O)Cc3cccs3)ccc2OC[C@H]2O[C@@H](CC(=O)NCC3CC3)CC[C@@H]21	4	5	-0.9
CC(=O)N(C)C[C@H]1Oc2ncc(-c3ccccc3F)cc2C(=O)N([C@@H](C)CO)C[C@@H]1C	2	7	-1.6
CC(=O)N(C)C[C@H]1[C@@H](c2ccc(-c3cccc(F)c3)cc2)[C@@H](CO)N1C(C)=O	-1	-3	-0.5
C[C@@H]1CN([C@H](C)CO)C(=O)c2cc(C#Cc3ccccc3F)cnc2O[C@H]1CN(C)S(C)(=O)=O	2	-5	1.4
Cc1ccc(S(=O)(=O)N[C@@H]2CC[C@H](CCNC(=O)C3CC3)O[C@H]2CO)cc1	2	-3	-0.4
O=C(C[C@@H]1C[C@H]2c3cc(NC(=O)C4CCOCC4)ccc3O[C@H]2[C@H](CO)O1)NC1CCCCC1	-4	0	-0.3
C[C@@H]1CN([C@@H](C)CO)C(=O)c2cc(NC(=O)CCN3CCOCC3)ccc2O[C@H]1CN(C)S(=O)(=O)c1cn(C)cn1	1	12	0.1
CCCCN1C(=O)C(CC(=O)NCC2CCCCC2)CC(C(=O)N2CCOCC2)=C1C (stereo unspecified)	19	6	0.8
CC(C)(C)OC(=O)N1CCC(NC(=O)c2[nH]cnc2C(=O)Nc2ccc(Br)cc2F)CC1	27	12	2.6
C[C@H](CO)N1C[C@H](C)[C@@H](CN(C)S(=O)(=O)c2cccs2)Oc2ccc(NC(=O)Nc3cccc4ccccc34)cc2C1=O	2	4	-1.0
O=C(N[C@@H]1CC[C@H](CCNS(=O)(=O)c2ccc(F)cc2)O[C@H]1CO)C1CCCC1	-1	-4	-0.6
CCCCCCCCN1C(=O)[C@@H](CC(=O)NCC23CC4CC(CC(C4)C2)C3)C[C@@]2(C(=O)OC)C1=C[C@H](C1CCCC1)O[C@@H]2C	8	9	7.2
C[C@H]1CCCCO[C@H](CN(C)C(=O)Nc2ccc(F)cc2)[C@@H](C)CN([C@@H](C)CO)C(=O)c2cc(NS(=O)(=O)c3cccs3)ccc2O1	4	-13	-0.8
NCC[C@H]1CC[C@H](NS(=O)(=O)c2ccc(Cl)cc2)[C@H](CO)O1	5&2	10&1	4.5&0.9
O=C1CN(S(=O)(=O)Cc2ccccc2)C[C@H]2[C@H](c3ccc(C#CC4CC4)cc3)[C@H](CO)N12	5	-16	19
Nc1ncnc2c1ncn2[C@@H]1O[C@H](C(=O)N[C@@H](CO)Cc2ccccc2)[C@@H](O)[C@H]1O	9	6	-1.2
COc1cccc(-c2ccc([C@H]3[C@@H](CO)N4CCCCN(C(=O)NC(C)C)C[C@H]34)cc2)c1	-6	15	-2.4
COc1ccccc1C#Cc1ccc([C@H]2[C@H](C#N)N(C(=O)C3CCCC3)[C@H]2CO)cc1	-1	-19	30
CS(=O)(=O)N(CC1CCC1)C[C@@H]1N[C@H](CO)[C@@H]1c1ccccc1	-4	-2	-0.1
COCCNC(=O)[C@H]1[C@H](CO)[C@H]2Cn3c(cccc3=O)[C@@H]1N2Cc1cccc(Cl)c1	1	4	-0.6
C[C@H](CO)N1C[C@H](C)[C@@H](CN(C)CC2CCCCC2)Oc2ccc(NC(=O)CCC(F)(F)F)cc2C1=O	4	6	1.2
CO[C@H]1CN(C)C(=O)c2ccc(NS(=O)(=O)CC(F)(F)F)cc2OC[C@H](C)N(Cc2cccnc2)C[C@@H]1C	0	4	0.1

4 compounds from above, ordered by the number in rRNA inh HTS OD600, low to high.
SMILES	rRNA inh HTS	rRNA inh HTS OD600	rRNA inh HTS RFP
O=C(C[C@@H]1C[C@H]2c3cc(NC(=O)C4CCOCC4)ccc3O[C@H]2[C@H](CO)O1)NC1CCCCC1	-4	0	-0.3
COCCNC(=O)[C@H]1[C@H](CO)[C@H]2Cn3c(cccc3=O)[C@@H]1N2Cc1cccc(Cl)c1	1	4	-0.6
C[C@H](CO)N1C[C@H](C)[C@@H](CN(C)CC2CCCCC2)Oc2ccc(NC(=O)CCC(F)(F)F)cc2C1=O	4	6	1.2
COc1cccc(-c2ccc([C@H]3[C@@H](CO)N4CCCCN(C(=O)NC(C)C)C[C@H]34)cc2)c1	-6	15	-2.4

Carrying on.
SMILES	rRNA inh HTS	rRNA inh HTS OD600	rRNA inh HTS RFP
O=C(C[C@@H]1CC[C@H]2[C@@H](COC[C@@H](O)CN2Cc2ccc(Cl)cc2)O1)Nc1nccs1	-3	-21	0.5
C[C@@H]1CN([C@@H](C)CO)C(=O)c2cccc(NC(=O)C3CCCCC3)c2O[C@H]1CN(C)Cc1ccc(-c2ccccc2)cc1	4	1	-0.5
C[C@H](CO)N1C[C@H](C)[C@@H](CN(C)Cc2ccccc2)Oc2ccc(NC(=O)Cc3ccccc3)cc2CC1=O	0	-16	2.2
C[C@@H]1CN([C@H](C)CO)S(=O)(=O)c2ccc(/C=C/c3ccccc3)cc2O[C@H]1CN(C)Cc1ccc(C(=O)O)cc1	-1	3	-4.3
O=C(C[C@@H]1CC[C@@H](NC(=O)Nc2ccc(F)cc2)[C@@H](CO)O1)NCc1ccccn1	2	11	-0.3
CC(C)NC(=O)N[C@H]1C=C[C@H](CC(=O)NCCCN(C)C)O[C@@H]1CO	0	13	0.2
CC(C)C#Cc1ccc2c(c1)O[C@H](CN(C)C(=O)C1CCC1)[C@@H](C)CN([C@@H](C)CO)S2(=O)=O	-8	-16	-0.3
CO[C@H]1CN(C)C(=O)c2cc(NC(=O)C3CC3)ccc2OC[C@@H](C)N(C(C)=O)C[C@@H]1C	3	1	-0.7
CO[C@@H]1CN(C)C(=O)c2cc(NC(=O)c3ccccc3F)ccc2OC[C@@H](C)N(C(C)=O)C[C@@H]1C	2	6	-3.3
CO[C@@H]1CN(C)C(=O)c2ccc(NS(=O)(=O)c3cn(C)cn3)cc2OC[C@@H](C)N(Cc2cccc(F)c2)C[C@H]1C	-7	-12	3.1
CC(=O)NCCNc1nc2cc(-c3cscc3C)sc2c(=O)n1C	-13	-13	-3.1
C[C@@H]1CN([C@@H](C)CO)C(=O)c2cc(C#CC3(O)CCCC3)cnc2O[C@@H]1CN(C)Cc1cncnc1	2	3	-2.1
O=C(NCC[C@@H]1CC[C@H](NC(=O)C2CCCC2)[C@H](CO)O1)c1ccc(F)cc1	-2	0	0.5
CCCC#Cc1ccc([C@H]2[C@H](C#N)N(C(=O)CN3CCOCC3)[C@H]2CO)cc1	3	21	-7.3
CN1[C@@H]2c3ccc(C4=CCCC4)c(=O)n3C[C@H]1[C@H](CO)[C@H]2C(=O)N1CCCCC1	1	1	-3.1
COc1ccccc1CNC(=O)C[C@H]1C[C@H]2c3cc(NC(=O)c4cccnc4)ccc3O[C@H]2[C@@H](CO)O1	4	10	-0.3
CC(C)C#Cc1ccc2c(c1)O[C@@H](CN(C)Cc1ccncc1)[C@@H](C)CN([C@@H](C)CO)S2(=O)=O	-8	-23	15
C[C@@H]1CN([C@H](C)CO)C(=O)Cc2cc(NC(=O)C3CC3)ccc2O[C@@H]1CN(C)C(=O)Nc1ccc(F)cc1	2	7	-2.5
O=C1C=C(c2n[nH]nc2-c2ccccc2)C[C@@H](c2ccc(F)cc2)C1	-24	-39	-8.5
O=C(C[C@@H]1C=C[C@H](NC(=O)Nc2ccc3c(c2)OCO3)[C@@H](CO)O1)NCc1ccc2c(c1)OCO2	1	2	-4.8
C[C@@H]1CCCCO[C@@H](CN(C)Cc2ccncc2)[C@H](C)CN([C@H](C)CO)C(=O)c2cc(NC(=O)Nc3ccc4c(c3)OCO4)ccc2O1	-3	3	3.2
C[C@H]1CN([C@@H](C)CO)C(=O)Cc2cc(NC(=O)Nc3ccc(F)cc3)ccc2O[C@@H]1CN(C)Cc1ccncc1	-9	-14	4.4
C[C@@H]1CN([C@@H](C)CO)C(=O)CCCn2nncc2CO[C@H]1CN(C)C(=O)Nc1cccc2ccccc12	1&-1	-6&4	14&2.9
C[C@@H]1CN([C@@H](C)CO)S(=O)(=O)c2ccc(-c3cccc(C#N)c3)cc2O[C@H]1CN(C)C(=O)c1ccccc1	-7	-3	-0.1
CC(C)Nc1nc(Nc2ccc(F)cc2)c2sccc2n1	-68	-73	-30

Next part, overlapping the part above by four compounds.
SMILES	rRNA inh HTS	rRNA inh HTS OD600	rRNA inh HTS RFP
C[C@H]1CN([C@@H](C)CO)C(=O)Cc2cc(NC(=O)Nc3ccc(F)cc3)ccc2O[C@@H]1CN(C)Cc1ccncc1	-9	-14	4.4
C[C@@H]1CN([C@@H](C)CO)C(=O)CCCn2nncc2CO[C@H]1CN(C)C(=O)Nc1cccc2ccccc12	1&-1	-6&4	14&2.9
C[C@@H]1CN([C@@H](C)CO)S(=O)(=O)c2ccc(-c3cccc(C#N)c3)cc2O[C@H]1CN(C)C(=O)c1ccccc1	-7	-3	-0.1
CC(C)Nc1nc(Nc2ccc(F)cc2)c2sccc2n1	-68	-73	-30
COc1ccc(S(=O)(=O)N[C@H]2C=C[C@H](CC(=O)NCCc3ccccc3)O[C@@H]2CO)cc1	-5	-6	-2.5
O=C(Cc1cccnc1)N1CC(=O)N2[C@H](C1)[C@H](c1ccc(-c3cccc(F)c3)cc1)[C@@H]2CO	3	-3	1.3
C[C@H]1CN([C@@H](C)CO)C(=O)c2cc(NC(=O)Nc3cccc4ccccc34)ccc2O[C@H]1CN(C)Cc1ccc(-c2ccccc2)cc1	2	14	4.3
CCOC(=O)[C@]12CCCC=C1N(Cc1ccccc1)C(=O)[C@H](CC(=O)NCc1cccc3ccccc13)C2	-2	0	1.7
CCN1[C@H](C(=O)NCc2ccccc2)[C@@H](CO)[C@@H]2Cn3c(ccc(-c4cccnc4)c3=O)[C@@H]21	-2	1	-1.9
C[C@@H]1CN([C@@H](C)CO)C(=O)c2cc(NS(=O)(=O)c3ccccc3)ccc2O[C@@H](C)CCCCO[C@H]1CN(C)S(=O)(=O)c1cn(C)cn1	0	-5	-1.9
Cc1ccc(Cc2c(-c3ccco3)nc3ccc(Br)cn23)cc1	0	-1	6.5
O=C(NCC[C@@H]1CC[C@H](NC(=O)c2ccc3c(c2)OCO3)[C@H](CO)O1)Nc1cc(F)ccc1F	-1	0	-0.2
COCCCN1C(=O)C(CC(=O)NCCCCc2ccccc2)CC(C(=O)N(C(C)C)C(C)C)=C1C (stereo unspecified)	-4	-28	5.4
CCS(=O)(=O)N1CC2(CN(Cc3cccnc3)[C@@H](CO)c3c2c2ccc(OC)cc2n3C)C1	-2	1	-1.2
CC(=O)Nc1ccc(CNc2nc3cc(-c4ccccc4C)sc3c(=O)n2C)cc1	1	-19	8.0
CCOC(=O)C1=CCN(S(=O)(=O)c2ccc(F)cc2)C1c1ccc(Br)cc1 (stereo unspecified)	-15	-17	-4.9
C[C@@H]1CCCCO[C@H](CN(C)Cc2ccc(C(F)(F)F)cc2)[C@@H](C)CN([C@H](C)CO)C(=O)c2cc(NC(=O)Nc3ccccc3)ccc2O1	2	6	0.4
C[C@@H]1CCCCO[C@H](CN(C)C)[C@H](C)CN([C@@H](C)CO)C(=O)c2cc(NS(=O)(=O)c3cccs3)ccc2O1	3	2	-3.0
CCC(=O)N1CC[C@@H]2[C@H](CO)Nc3ccc(-c4ccccc4)cc3[C@@H]21	-1	-10	1.4
O=C(CCN1CCCCC1)NCC[C@H]1CC[C@H](NC(=O)C2CC2)[C@H](CO)O1	2	2	-0.6
C[C@@H]1CN([C@H](C)CO)C(=O)c2cccc(NC(=O)c3ccc(-c4nccs4)cc3)c2O[C@H]1CN(C)Cc1ccc2c(c1)OCO2	-6	-19	2.1
CCS(=O)(=O)N1CC2(CN(C(=O)Nc3c(C)noc3C)[C@@H](CO)c3c2c2ccc(OC)cc2n3C)C1	-1	3	-2.6
O=C(c1ccco1)N1CCN(C2CN(Cc3ccc([N+](=O)[O-])cc3)S(=O)(=O)C2)CC1 (stereo unspecified)	17	14	2.0
O=C(Cc1ccncc1)NCC[C@@H]1CC[C@H](NC(=O)Nc2ccc(Cl)cc2)[C@@H](CO)O1	-2	-9	0.6
C[C@@H]1CCCCO[C@H](CN(C)C(=O)Nc2ccccc2)[C@@H](C)CN([C@@H](C)CO)C(=O)c2cc(NC(=O)c3ccccc3)ccc2O1	-1	-2	1.9
COC(=O)C[C@H]1CC[C@H]2[C@@H](COC[C@@H](O)CN2S(=O)(=O)c2ccc(F)cc2)O1	1	1	-1.7
C[C@H]1CN([C@@H](C)CO)S(=O)(=O)c2ccc(-c3ccccc3)cc2O[C@H]1CN(C)C(=O)CN(C)C	3	7	2.3
COc1ccc(S(=O)(=O)Nc2ccc3c(c2)CC(=O)N([C@H](C)CO)C[C@@H](C)[C@H](CN(C)S(=O)(=O)c2cccs2)O3)cc1	-4	0	-2.0
C[C@H]1CN([C@@H](C)CO)C(=O)c2cc(NC(=O)Cn3cnnn3)ccc2O[C@H]1CN(C)Cc1ccc(C(F)(F)F)cc1	1	-2	-1.6
CO[C@H](CN(C)C(=O)c1ccccc1F)[C@@H](C)CN([C@@H](C)CO)S(=O)(=O)c1ccc(Cl)cc1	2	8	-4.2
CN1OC[C@@H]2CN(Cc3ccccc3)[C@H](c3ccc(-n4ccnc4)cc3)C[C@@H]21	-32*	-22*	-3.6*
